Screening results: PubChem BioAssay, National Center for Advancing Translational Sciences (NCATS)
2A StopGo – High Throughput Screening for Foot and Mouth Disease Virus Antivirals; human cells with a luciferase reporter of 2A StopGo recoding; control for the full effect not named in the record; Potency, µM (doses to about 57.9 µM), inactives show top-dose signal change, negative = less light; 410,000 compounds, 1.2% hits; active = well fitted falling curve with a large enough effect; inconclusive = small, poorly fitted or top-dose-only effect; inactive = no such curve, though single readings can be large or run the other way; tested in HEK293T cells; further: on the % scale 0 is the no-effect control and ±100 the full control effect; nearly all actives have a fitted effect of over 45% in size; luciferase light after 4 h
RE007 growth inh – qHTS Assay for Inhibitors of the HIV-1 protein Vpr; S. pombe RE007 Vpr strain, BacTiter-Glo ATP luminescence, 24 h; control for the full effect not named in the record; Potency, µM (doses to about 92.2 µM), inactives show at the highest dose activity change, negative = less growth; 360,000 compounds, 0.21% hits; active = well fitted falling curve with a large enough effect; inconclusive = small, poorly fitted or top-dose-only effect; inactive = no such curve, though single readings can be large or run the other way;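 further: on the % scale 0 is the no-effect control and ±100 the full control effect; nearly all actives have a fitted effect of over 50% in size; the assay follows cell death caused by Vpr and the record does not say whether a fall means rescue or toxicity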
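Fission yeast RE007 carrying one integrated HIV-1 vpr copy, seeded at OD 0.01 in PMG+AL medium with 23 nL pinned compound. Grown 24 h at 30 degrees; viability read by BacTiter-Glo luminescence after 5 min.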
LASV entry inh – qHTS for Inhibitors of binding or entry into cells for Lassa Virus; Potency, µM (series often up to 37.9 µM), without a hit: at the highest dose activity change, negative = inhibition, most hits filed as inhibitors; 300,000 compounds, 1.2% hits; Lassa virus pseudotype entry inhibition, cell reporter; control for the full effect not named in the record; active means well fitted inhibition curve with a large enough effect; inconclusive means small, poorly fitted or top-dose-only effect, or effect the other way; inactive means flat fitted curve, though single readings scatter; tested in HEK293 cells; further: on the % scale 0 is the no-effect control and ±100 the full control effect; nearly all actives have a fitted effect of over 50% in size; luciferase read-out
Cruzain Triton – qHTS Assay for Promiscuous and Specific Inhibitors of Cruzain (with detergent); purified cruzain, Z-FR-AMC fluorescence, 0.01% Triton; Potency, µM, for the others: max response, negative = inhibition, most hits filed as inhibitors; 200,000 compounds, 0.43% hits; AID 1478, 2009; active means well fitted curve in the direction sought with a large enough effect; inconclusive means small, poorly fitted or top-dose-only effect, or another doubt; inactive means no such curve, though single readings can be large; an effect the other way counts as inactive or inconclusive;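 further: plate controls were neutral wells for no effect and buffer without enzyme for full effect; nearly all actives have a fitted effect of over 40% in size; top concentration of the series not given in the record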
Target sequence (P25779 123-467 limits assumed): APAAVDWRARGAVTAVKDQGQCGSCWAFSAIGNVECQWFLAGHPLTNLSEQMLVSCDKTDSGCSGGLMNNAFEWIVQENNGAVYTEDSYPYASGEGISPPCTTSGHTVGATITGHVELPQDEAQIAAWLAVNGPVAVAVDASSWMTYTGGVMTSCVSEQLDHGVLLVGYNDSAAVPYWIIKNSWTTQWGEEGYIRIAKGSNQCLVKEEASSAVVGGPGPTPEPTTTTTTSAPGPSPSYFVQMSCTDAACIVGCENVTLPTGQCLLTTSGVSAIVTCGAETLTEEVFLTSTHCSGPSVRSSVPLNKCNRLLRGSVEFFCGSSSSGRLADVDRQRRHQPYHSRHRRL
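Compounds were screened in titration against cruzain (1.5 nM) with 0.01% Triton X-100 to counter colloidal aggregation. Activity was the AMC fluorescence increase over 60 s after adding 2 uM Z-FR-AMC at pH 5.5.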
MARV entry inh – qHTS for inhibitors of binding or entry into cells for Marburg Virus; Potency, µM (doses to about 37.8 µM), for inactives: top-dose activity change, negative = inhibition, usual class: inhibitors; Marburg virus pseudotyped entry inhibition, cell reporter; control for the full effect not named in the record; about a third of the inactives were read at about 46 µM; 300,000 compounds, 1.8% hits; active = well fitted inhibition curve with a large enough effect; inconclusive = small, poorly fitted or top-dose-only effect, or effect the other way; inactive = flat fitted curve, though single readings scatter; tested in HEK293 cells; about a fifth of its hits are not listed in these tables; further: on the % scale 0 is the no-effect control and ±100 the full control effect; luciferase read-out
SARS PLpro yeast – qHTS of Yeast-based Assay for SARS-CoV PLP; S. cerevisiae expressing SARS-CoV PLpro, growth rescue; control for the full effect not named in the record; Potency, µM (titrated, usually from 32.9 µM), for the others: top-dose activity, positive = growth rescue; 330,000 compounds, 0.19% hits; further: 0% is about no effect; nearly all actives have a fitted effect of over 55% in size; growth read by luminescence after 48 h
NS1 function inh – qHTS Assay for Inhibitors of Influenza NS1 Protein Function | S. cerevisiae slowed by influenza A NS1, growth recovery by OD600 | Potency, µM (series often up to 46.1 µM), for inactives: top-dose activity, positive = more growth | 270,000 compounds, 0.4% hits | AID 2326, 2010; further: actives are rising curves; nearly all actives have a fitted effect of over 50% in size
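OD600 was taken as the measure of yeast growth restored by compound in an NS1-expressing S. cerevisiae strain. Cells had been washed out of glucose medium and diluted 1:100 into galactose -URA medium, pH 6.0.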
Cruzain noTriton – qHTS Assay for Promiscuous and Specific Inhibitors of Cruzain (without detergent); Cruzipain (Trypanosoma cruzi), P25779; purified cruzain, Z-FR-AMC fluorescence, no detergent; Potency, µM, without a hit: max response, negative = inhibition, actives largely listed as inhibitors; 200,000 compounds, 2.3% hits; AID 1476, 2009; active means well fitted curve in the direction sought with a large enough effect; inconclusive means small, poorly fitted or top-dose-only effect, or another doubt; inactive means no such curve, though single readings can be large; an effect the other way counts as inactive or inconclusive;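 further: plate controls were enzyme without inhibitor for no effect and buffer without enzyme for full effect; nearly all actives have a fitted effect of over 40% in size; top concentration of the series not given in the record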
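Detergent-free condition (0.00005% Triton X-100) in acetate buffer pH 5.5 with DTT. 1.5 nM enzyme and compound were pre-mixed 15 min, then 2 uM Z-FR-AMC substrate added; reaction progress from fluorescence change between first and third reads (60 s).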
* marks the source's active call; other numbers are inactive results; ? = inconclusive; . = not tested or not shown; [ ] = remark or other dose. Unless noted, the call rests on the fitted dose curve; in most records, active means well fitted rising curve with a large enough effect; inconclusive means small, poorly fitted or top-dose-only effect; inactive means no such curve, though single readings can be large or run the other way. Potency means the concentration at half of the fitted maximal effect. Rows are unselected; about 4.8% have a hit in one of these screens.

SMILES | 2A StopGo | RE007 growth inh | LASV entry inh | Cruzain Triton | MARV entry inh | SARS PLpro yeast | NS1 function inh | Cruzain noTriton
Cc1cc(NC(=O)C(C)SCC(=O)N(C)CC(=O)Nc2ccccc2C(F)(F)F)no1 (stereo not drawn) | -1.5% | -2.9% | ? | . | 3.9% | -0.4% | . | .
COCCNC(=O)C1=C(N)C(C(=O)Nc2ccc(C)c(S(=O)(=O)N3CCCCC3)c2)SC1=Nc1ccc(C)cc1C (stereo not drawn) | -0.3% | -10.7% | 0.3% | 3.4% | ? | -0.6% | ? | -16.2%
CCOC(=O)c1c(C)[nH]c(C)c1S(=O)(=O)NCC(=O)N1CCN(c2cccc(C)c2)C(C)C1 (stereo not drawn) | 11.1% | . | -0.4%[46.1 µM] | -1.6% | . | . | . | 29.7%
Cn1nccc1C(=O)N1CCC2(CC1)OCCO2 | 8.5% | 1.2% | -13.0%[46.1 µM] | . | 18.1%[46.1 µM] | 2.3% | 0.7% | .
Clc1ccccc1CNc1nc2ccccc2n2cnnc12 | -6.5% | 1.7% | . | . | . | -1.5% | -4.5% | .
COc1cc(OC)cc(C(=O)NNC(=O)CN2C(=O)NC(C)(c3ccc(C)cc3)C2=O)c1 (stereo not drawn) | 4.8% | 2.5% | -8.8% | . | 1.3%[46.1 µM] | -4.5% | . | .
Cc1cccc(NC(=O)CSc2nnc3scc(-c4ccccc4)n23)c1 | 0.0% | . | -1.4%[46.1 µM] | -5.0% | 0.7%[46.1 µM] | . | . | -8.1%
CCN(CC(=O)Nc1ccc(N2CCOCC2)cc1)C(=O)c1ccc(C#N)cc1 | -16.1% | -2.4% | -11.9% | . | 1.4% | -0.1% | 0.4% | .
Nc1nc(C(F)(F)F)c(Br)c(=O)n1N | -17.8% | -5.0% | 17.2% | . | 13.1%[46.1 µM] | -2.1% | . | .
COc1ccc(NC2=CC(c3ccc(F)cc3)N(c3ccc(OC)cc3)C2=O)cc1 (stereo not drawn) | -4.5% | 7.7% | 1.6% | -1.3% | ? | -12.6% | ? | ?
CCOC(=O)c1c(C)n(CCNC(C)=O)c2ccc(OC)cc12 | 17.1% | 12.5% | -11.4% | 2.6% | -21.9% | -24.6% | 2.1% | -6.6%
Cc1ccc2oc(C(=O)Nc3nc(-c4ccc(F)cc4)ns3)c(C)c2c1 | -3.5% | . | 2.3%[46.1 µM] | 2.5% | -0.4%[46.1 µM] | . | . | 6.7%
CCC1CCC(C(=O)NNC(=O)c2cc(-c3ccco3)[nH]n2)CC1 (stereo not drawn) | 1.0% | 1.7% | -3.3% | . | 0.0%[46.1 µM] | 2.9% | . | .
COc1ccc(C(=O)N2CCN(C(=O)C3COc4ccccc4O3)CC2)cc1 (stereo not drawn) | -19.8% | -10.2% | . | . | . | 1.3% | 7.6% | .
COc1ccc(/C=C(\NC(=O)c2ccco2)C(=O)NC(Cc2ccccc2)C(=O)O)cc1 (stereo not drawn) | -9.1% | -6.8% | -4.7%[46.1 µM] | . | 8.8%[46.1 µM] | -1.1% | -8.8% | .
Cc1cnc(C(=O)Oc2cccc(Cl)c2Cl)cn1 | -12.5% | ? | -1.2% | . | 19.9%[46.1 µM] | -4.0% | -14.3% | .
COc1ccc(N2CC(C(=O)Nc3nnc(SCC(=O)N4CCCC4)s3)CC2=O)cc1 (stereo not drawn) | -8.4% | -3.2% | . | . | . | -2.8% | 17.3% | .
CC(C)(C)Cc1nc(-c2ccccn2)no1 | 4.8% | ? | -8.9% | 4.4% | 34.4% | 0.4% | -11.7% | 6.4%
O=C(Nc1ccccc1C(=O)NCc1ccccc1)c1ccco1 | -12.4% | -5.2% | -1.2% | 1.2% | -26.7% | -7.0% | -37.3% | 10.1%
COc1ccc(N2CC(NC(=O)N3CCN(C(=O)c4ccco4)CC3)CC2=O)cc1OC (stereo not drawn) | -21.7% | -2.8% | 5.7% | . | 19.6% | 0.9% | . | .
O=C1/C(=C/c2cccnc2)Sc2ccccc21 | 29.9% | 28.2µM* | 0.0% | -5.6% | 10.5% | -12.6% | -11.8% | 7.4%
Cc1ccc(S(=O)(=O)Nc2ccc(N(C)S(=O)(=O)c3ccc(C)cc3)cc2)cc1 | -21.4% | -4.1% | ? | . | ? | -0.2% | 7.8% | .
CC1(c2nnc(-c3ccncc3)o2)CC(c2ccc([N+](=O)[O-])cc2)=NO1 (stereo not drawn) | ? | 11.1% | . | . | . | 0.8% | -1.5% | .
CC1CCCC(C)N1CCNC(=O)Nc1ccc(Cl)cc1 (stereo not drawn) | 0.0% | -1.3% | -4.4% | -5.5% | -25.8% | 1.4% | 1.8% | -15.3%
COC(=O)c1ccc(NC(=O)CC2C(=O)N(c3cccc(F)c3)C(=O)N2CC(C)C)cc1 (stereo not drawn) | -8.3% | . | 0.3%[46.1 µM] | -2.7% | -17.4%[46.1 µM] | . | . | -9.1%
SMILES | 2A StopGo | RE007 growth inh | LASV entry inh | Cruzain Triton | MARV entry inh | SARS PLpro yeast | NS1 function inh | Cruzain noTriton
CC(=O)N[C@@H](C)c1nc2ccccc2n1CCCN1CCN(c2nc(-c3ccc(C)cc3)cs2)CC1 | 0.0% | -4.9% | . | . | . | 2.9% | 4.1% | .
O=C(N1CCCCC1)C1(c2ccccc2)CCOCC1 | 5.6% | -6.9% | 1.4% | 4.6% | 14.1% | 0.5% | ? | 7.9%
COc1cccc2cc(-c3ccnc(N)n3)oc12 | 39.1%[activator] | 3.0% | -18.6% | . | 0.3% | 1.3% | 6.5% | .
COc1ccccc1N1CCN(S(=O)(=O)CCNC(=O)Cc2ccc(Cl)cc2)CC1 | ? | . | -12.9%[46.1 µM] | -3.1% | . | . | . | ?
Cc1cc(C)nc(NS(=O)(=O)c2ccc(NC(=O)c3ccc(N4C(=O)CCC4=O)cc3)cc2)n1 | 10.3% | 7.1% | -2.6% | -2.1% | -22.6% | 19.7% | 1.2% | 4.6%
CC1=CC2CC1C1C(=O)N(c3ccc(S(=O)(=O)Nc4nc(C)cc(C)n4)cc3)C(=O)C21 (stereo not drawn) | 49.2%[activator] | -12.4% | 12.8% | -0.2% | ? | 1.6% | 8.1% | -2.4%
O=C(CCC(=O)N1CCSc2ccccc21)Nc1ccc(Cl)cc1 | -27.6% | . | -15.1%[46.1 µM] | -6.6% | . | . | . | -10.4%
O=C(Cn1c(=O)[nH]c2ccsc2c1=O)N1CCN(c2ccc(F)cc2)CC1 | -17.5% | 5.7% | 4.3% | -2.0% | ? | 9.3% | -2.6% | -3.1%
O=C(CNC(=O)c1ccccc1)NCC(=O)OCC(=O)c1ccc([N+](=O)[O-])cc1 | 8.7% | -17.7% | 9.0% | -4.4% | 14.5%[46.1 µM] | 4.7% | -3.2% | -5.7%
CCS(=O)(=O)c1nc(S(=O)(=O)c2ccc(C)cc2)c(NCc2ccccc2Cl)s1 | 15.1% | . | -16.1%[46.1 µM] | -4.7% | ? | . | . | ?
COc1ccc(OC)c(C(=O)c2c(C)oc3cc(Br)c(O)c(CN(C)C)c23)c1 | -23.3% | 10.2% | 18.4% | . | -7.6% | . | . | .
COc1ccc(N(CC(=O)Nc2cccc(C(=O)O)c2)S(=O)(=O)c2c(C)noc2C)cc1 | 7.8% | -1.3% | -9.5% | 5.4% | 20.2% | 3.0% | ? | -4.9%
CC(C)(C)c1ccc(C(=O)NCCC(=O)Nc2ccc3c(c2)OCCO3)cc1 | -7.0% | 14.9% | -20.7%[46.1 µM] | . | 24.5% | -0.1% | . | .
Cc1nnc(SCC(=O)Nc2ccc(S(=O)(=O)N3CCCC3)cc2)n1N | -7.4% | 0.5% | 9.8% | 2.5% | -5.1% | 3.1% | -6.2% | -5.6%
CC1CCCC(NC(=O)CSc2ncccc2C(=O)O)C1C (stereo not drawn) | -5.1% | -2.0% | 5.5% | 2.9% | ? | 2.4% | -4.5% | -6.7%
O=C(NCc1cccs1)c1cccc(Nc2nc3ccc(Br)cc3[nH]2)c1 | -10.4% | -7.7% | . | -18.4% | . | 4.8% | 13.2% | -0.5%
O=C(Nc1cccc(-c2nc3cc(Cl)ccc3o2)c1)C1CCCO1 (stereo not drawn) | 28.7% | 1.3% | -1.5% | -4.3% | -2.1% | -7.6% | -36.9% | ?
COc1cc(/C=C(\CC(=O)O)c2nc3ccccc3s2)cc(OC)c1O | 10.8% | 0.2% | 1.0% | . | 7.5% | 0.5% | . | .
Cc1sc2nc(CN3CCCC3)nc(N3CCC(C(N)=O)CC3)c2c1C | -24.1% | -2.5% | ? | 0.2% | -11.1%[46.1 µM] | -18.3% | 6.2% | 4.0%
Cc1c(Cl)cccc1NC(=O)c1cc(-c2cccs2)on1 | 24.9% | . | 3.8%[46.1 µM] | -2.5% | -0.2%[46.1 µM] | . | . | ?
COc1ccccc1OCCNC(=O)Cc1ccc(S(=O)(=O)N2CCOCC2)s1 | -13.8% | 4.6% | 8.5% | . | -0.4% | 3.3% | . | .

Fetched by compound from above (3):
SMILES | 2A StopGo | RE007 growth inh | LASV entry inh | Cruzain Triton | MARV entry inh | SARS PLpro yeast | NS1 function inh | Cruzain noTriton
Cc1cc(C)nc(NS(=O)(=O)c2ccc(NC(=O)c3ccc(N4C(=O)CCC4=O)cc3)cc2)n1 | 10.3% | 7.1% | -2.6% | -2.1% | -22.6% | 19.7% | 1.2% | 4.6%
CC(=O)N[C@@H](C)c1nc2ccccc2n1CCCN1CCN(c2nc(-c3ccc(C)cc3)cs2)CC1 | 0.0% | -4.9% | . | . | . | 2.9% | 4.1% | .
CC1=CC2CC1C1C(=O)N(c3ccc(S(=O)(=O)Nc4nc(C)cc(C)n4)cc3)C(=O)C21 (stereo not drawn) | 49.2%[activator] | -12.4% | 12.8% | -0.2% | ? | 1.6% | 8.1% | -2.4%
